Compound activity as filed in PubChem.
ID4 binder = binders of human ID4 protein, primary screen, biochemical, small molecule microarray, single point; DNA-binding protein inhibitor ID-4 (Homo sapiens), P47928; AID 624137, 2012; 31,000 tested, 1.2% active; calls only; Flag-ID4 binding, fluorescence F/B;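 active means spot signal over background at p below 0.07 in all four prints; compounds were printed on slides so no solution concentration is given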;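 further: a binder raises fluorescence above local background on the spot; about 2 pmol printed per array spot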
Target sequence (P47928 whole entry, looked up): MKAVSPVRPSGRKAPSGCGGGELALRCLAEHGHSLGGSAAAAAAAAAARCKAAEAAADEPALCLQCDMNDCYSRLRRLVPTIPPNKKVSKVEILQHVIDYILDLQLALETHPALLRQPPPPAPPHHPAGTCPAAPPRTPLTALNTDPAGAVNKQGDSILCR
Calls only; i = inactive. These rows are one share of the data; count on the stated rates, not on these rows.

canonical_smiles | ID4 binder
C[C@H](CO)N1C[C@H](C)[C@@H](CN(C)C)Oc2ccc(N(C)C)cc2CC1=O | i
CS(=O)(=O)N(CC(=O)Nc1ccc(Br)cc1F)c1ccc(Cl)c(Cl)c1 | i
Cc1ccccc1NC(=O)C(=O)NCc1ccccn1 | i
CCc1cc(Br)cc(C)c1NC(=O)CSc1nnc(-c2ccncc2)n1-c1ccccc1 | i
Cc1cc(N(CC(=O)Nc2ccc(Cl)cc2C)S(C)(=O)=O)ccc1Br | i
CCOc1ccccc1Nc1nc(N)nc(CSc2nncn2C)n1 | i
CCCC#Cc1cnc2c(c1)C(=O)N([C@H](C)CO)C[C@H](C)[C@H](CN(C)C(=O)Cc1cccnc1)O2 | i
Cn1c(SCC(=O)Nc2ccc(S(N)(=O)=O)cc2)nnc1-c1ccccc1Cl | i
CN(C)c1ccc2c(c1)[C@H]1C[C@H](CC(=O)NCc3ccc4c(c3)OCO4)O[C@H](CO)[C@H]1O2 | i
CCCC#Cc1cnc2c(c1)C(=O)N([C@@H](C)CO)C[C@H](C)[C@H](CN(C)Cc1ccc3c(c1)OCO3)O2 | i
C[C@@H]1CN([C@@H](C)CO)C(=O)c2cc(Br)cnc2O[C@@H]1CN(C)C(=O)CN(C)C | i
Cc1ccc([N+](=O)[O-])cc1N(CC(=O)Nc1ccc(Cl)cc1)S(C)(=O)=O | i
COc1ccc(OC)c(NC(=O)c2c(NC(=O)c3ccccc3)sc3c2CCC(C)C3)c1 (configuration not stated) | i
CCCN(C)C[C@H]1Oc2cc(C#Cc3cccnc3)ccc2S(=O)(=O)N([C@H](C)CO)C[C@@H]1C | i
COc1ccccc1C(=O)CC(=O)C(=O)Nc1sc2c(c1C#N)CCC2 | i
C[C@@H]1CN([C@@H](C)CO)S(=O)(=O)c2ccc(-c3ccccc3)cc2O[C@H]1CN(C)C | i
CN(C)CCCNc1ncnc2c1sc1nc(N3CCOCC3)c3c(c12)CCC3 | i
C[C@@H]1CN([C@H](C)CO)C(=O)c2cc(C#CCN(C)C)cnc2O[C@H]1CN(C)Cc1ccccc1 | i
COc1ccc(S(=O)(=O)N[C@@H]2C=C[C@H](CC(=O)NCCc3ccccc3)O[C@H]2CO)cc1 | i
CC1CNCCN1S(=O)(=O)c1cccc2cnccc12 (configuration not stated) | i
N#Cc1ccccc1CSc1nnc(Cc2cccc3ccccc23)n1-c1ccccc1 | i
C[C@H](CO)N1C[C@H](C)[C@H](CN(C)CC2CC2)Oc2cc(C#Cc3cccc(F)c3)ccc2S1(=O)=O | i
Cc1cccc(C)c1NC(=O)CSc1nc(O)cc(=O)[nH]1 | i
CCCc1cc(=O)[nH]c(Nc2nc(C)c3ccc(OC)cc3n2)n1 | i
CC(=O)N=c1sc(S(N)(=O)=O)nn1C | i
CCOC(=O)c1ccc(NC(=O)CSc2nc3cc4ccccc4cc3[nH]2)cc1 | i
COC(=O)CN(c1ccc(OC)c(OC)c1)S(C)(=O)=O | i
C[C@H]1CN([C@@H](C)CO)C(=O)c2cc(-c3ccccc3F)cnc2O[C@@H]1CN(C)Cc1ccccc1 | i
Cc1noc(C)c1NC(=O)N[C@@H]1C=C[C@@H](CC(=O)NCc2ccc(Cl)c(Cl)c2)O[C@H]1CO | i
C[C@@H]1CN([C@H](C)CO)C(=O)c2cc(C3=CCCC3)cnc2O[C@@H]1CN(C)Cc1cccc(F)c1 | i

Looked up by structure from the list above (two):
canonical_smiles | ID4 binder
CCCc1cc(=O)[nH]c(Nc2nc(C)c3ccc(OC)cc3n2)n1 | i
N#Cc1ccccc1CSc1nnc(Cc2cccc3ccccc23)n1-c1ccccc1 | i

A run of entries from further up, as a working copy:
canonical_smiles | ID4 binder
C[C@H](CO)N1C[C@H](C)[C@@H](CN(C)C)Oc2ccc(N(C)C)cc2CC1=O | i
CS(=O)(=O)N(CC(=O)Nc1ccc(Br)cc1F)c1ccc(Cl)c(Cl)c1 | i
Cc1ccccc1NC(=O)C(=O)NCc1ccccn1 | i
CCc1cc(Br)cc(C)c1NC(=O)CSc1nnc(-c2ccncc2)n1-c1ccccc1 | i

More entries:
canonical_smiles | ID4 binder
Cc1cccc(OCCCn2c(CO)nc3ccccc32)c1 | i
C[C@@H]1CN([C@H](C)CO)C(=O)c2cc(C#C[C@@H](C)O)cnc2O[C@@H]1CN(C)CC1CCOCC1 | i
COc1ccc(OC)c(C(=O)CSc2nnc(-c3ccccn3)n2-c2ccc(C)cc2)c1 | i
C[C@H](CO)N1C[C@H](C)[C@@H](CN(C)C(=O)Cc2cccnc2)Oc2ncc(C#CC3(O)CCCC3)cc2C1=O | i
C[C@@H]1CN([C@H](C)CO)C(=O)c2cc(/C=C/c3ccccc3)cnc2O[C@H]1CN(C)C(=O)c1ccc(F)cc1 | i
CCC(=O)N(C)C[C@H]1Oc2ncc(C#CCC3CCCC3)cc2C(=O)N([C@@H](C)CO)C[C@@H]1C | i
CCCN(C)C[C@H]1Oc2cc(C3=CCCC3)ccc2S(=O)(=O)N([C@@H](C)CO)C[C@@H]1C | i
Cc1sc(NC(=O)c2cc(-c3ccccc3)nc3ccccc23)c(C(=O)NCc2cccnc2)c1C | i
Cc1ccc(CN(CC(N)=O)S(=O)(=O)c2ccc(Cl)cc2)cc1 | i
C[C@@H]1CN([C@@H](C)CO)C(=O)c2cc(-c3ccccc3)cnc2O[C@@H]1CN(C)C(=O)c1cccc(F)c1 | i
C[C@H](CO)N1C[C@H](C)[C@H](CN(C)C(=O)C2CCCCC2)Oc2ncc(C#CC3CC3)cc2C1=O | i
O=C(CSc1nnc(-c2ccccn2)n1-c1ccccc1)Nc1cc(C(F)(F)F)ccc1Cl | i
COc1ccc(Nc2nc(N)nc(CSc3nccc(C)n3)n2)cc1 | i
O=C(C[C@H]1C=C[C@@H](NS(=O)(=O)c2ccc(F)cc2)[C@@H](CO)O1)NC1CCCCC1 | i
C/C=C/c1ccc2c(c1)O[C@@H](CN(C)CC1CCOCC1)[C@H](C)CN([C@@H](C)CO)S2(=O)=O | i
N#Cc1sc2c(c1OC(=O)c1cccs1)c(=O)n(-c1ccccc1)c(=S)n2-c1ccccc1 | i
CCOC(=O)c1c(NC(=O)CSc2nc(C)cc(C)n2)sc2c1CCCC2 | i
COC(=O)c1c(NC(=O)CN2C(=O)c3ccccc3C2=O)sc2c1CCC(C(C)(C)C)C2 (configuration not stated) | i
CC(C)N(Cc1nc(-c2ccccc2)no1)S(=O)(=O)c1ccccc1[N+](=O)[O-] | i
CCCN(C)C[C@@H]1Oc2ncc(Br)cc2C(=O)N([C@H](C)CO)C[C@H]1C | i
CO[C@@H](CN(C)S(=O)(=O)c1ccc(C)cc1)[C@@H](C)CN(Cc1ccccc1Cl)[C@@H](C)CO | i
C[C@@H]1CN([C@H](C)CO)C(=O)c2ccccc2-c2ccccc2CO[C@@H]1CN(C)Cc1ccccc1 | i
O=C(Cn1cnc2scc(-c3ccccc3)c2c1=O)Nc1ccc(F)cc1 | i
COc1ccc(-c2noc(CN(C(=O)c3ccc(C)c([N+](=O)[O-])c3)C(C)C)n2)cc1 | i
CC(C)[C@@H](C)NC(=O)N(C)C[C@@H]1OCc2ccccc2-c2ccccc2C(=O)N([C@@H](C)CO)C[C@H]1C | i
COc1ccc(NC(=O)C(C)NS(=O)(=O)c2ccccc2)cc1Cl (configuration not stated) | i
CCn1c(SCC(=O)Nc2ccccc2C)nc2ccc(I)cc2c1=O | i
CCc1cccc(OCC(=O)Nc2cc([N+](=O)[O-])ccc2O)c1 | i
C[C@H](CO)N1C[C@H](C)[C@@H](CN(C)C)Oc2ncc(-c3ccc(C(=O)N(C)C)cc3)cc2C1=O | i
COc1ccc(S(=O)(=O)N[C@@H]2CCCN(Cc3ccc(OCCO)cc3)C2)cc1 | i

canonical_smiles | ID4 binder
CN(C)c1nc(OC(C(F)(F)F)C(F)(F)F)nc(N(c2ccccc2)c2ccccc2)n1 | i
COc1ccc(Nc2nc3c(C)cccn3c(=O)c2C=NCc2ccccc2)cc1 | i
Cc1cccc(NC(=O)CC(C(=O)O)N2CCOCC2)c1 (configuration not stated) | i
Cc1ccc(-c2noc(CSc3nnc(C)n3-c3cccc(C)c3)n2)cc1 | i
COC(=O)C[C@@H]1C=C[C@H](NC(=O)c2ccccc2)[C@@H](CO)O1 | i
O=C(C[C@@H]1C[C@@H]2c3cc(NC(=O)C4CCC4)ccc3O[C@@H]2[C@@H](CO)O1)NCc1cccc(F)c1 | i
C[C@H]1CN([C@@H](C)CO)C(=O)c2cc(C#CCc3ccccc3)cnc2O[C@H]1CN(C)CC1CC1 | i
Cc1noc(C)c1S(=O)(=O)N(C)C[C@@H]1OCc2ccccc2-c2c(n(C)c3ccccc23)C(=O)N([C@@H](C)CO)C[C@H]1C | i
C[C@H](CO)N1C[C@H](C)[C@H](CN(C)CC2CC2)Oc2cc(C#CC3CC3)ccc2S1(=O)=O | i
CN(CC(=O)Nc1cccnc1)S(=O)(=O)c1ccc(Br)cc1 | i
COC(=O)N(C)C[C@H]1OCc2ccccc2-c2c(n(C)c3ccccc23)C(=O)N([C@@H](C)CO)C[C@H]1C | i
O=C(CSc1nnc(-c2cccnc2)o1)c1ccc2c(c1)OCCO2 | i
O=C(NCC[C@@H]1CC[C@@H](NC(=O)C2CCCCC2)[C@@H](CO)O1)c1ccc(F)cc1 | i
COc1ccc(NC(=O)CSc2nnc(-c3ccc(Cl)cc3)n2C)cc1 | i
C[C@@H]1CN([C@@H](C)CO)C(=O)c2ccccc2-c2ccccc2CO[C@@H]1CN(C)C(=O)c1ccccc1 | i
Cn1c(SCC(=O)c2ccc(F)cc2)nnc1-c1ccco1 | i
COC(=O)c1cc(-c2ccccc2)sc1NC(=S)Nc1ccn(C)n1 | i
Cc1ccc(-c2nn(CCC(=O)Nc3cccc(Cl)c3)c(=O)c3ccccc23)cc1 | i
CC1(C)CC(=O)C2=C(C1)N(c1ccccc1)C(=O)C2(NC(=O)c1cccnc1)C(F)(F)F (configuration not stated) | i
CN(C)C(=O)C[C@H]1CC[C@H](NC(=O)C2CCC2)[C@@H](CO)O1 | i
COc1ccc(CNC(=O)N(C)C[C@H]2OCc3ccccc3-c3c(n(C)c4ccccc34)C(=O)N([C@@H](C)CO)C[C@H]2C)cc1 | i
Nc1nnc(SCC(=O)Nc2ccc(F)c(F)c2F)s1 | i
Cc1cc(C)c(Cn2c(CCCO)nc3ccccc32)c(C)c1 | i
CC(C)CC#Cc1cnc2c(c1)C(=O)N([C@H](C)CO)C[C@H](C)[C@@H](CN(C)Cc1cccc(F)c1)O2 | i
Cc1ccc(C2C(C(=O)c3sc(-c4ccccc4)nc3C)C(=O)C(=O)N2CCN(C)C)o1 (configuration not stated) | i
Cc1nc(CSc2ncnc3sc(C)c(C)c23)cs1 | i
COc1ccccc1-c1ccc2c(c1)O[C@H](CN(C)C(=O)c1cccnc1)[C@H](C)CN([C@H](C)CO)S2(=O)=O | i
O=C(C[C@H]1CC[C@@H](NC(=O)CCN2CCCCC2)[C@H](CO)O1)Nc1nccs1 | i
CNC[C@@H]1Oc2ncc(C3=CCCCC3)cc2C(=O)N([C@@H](C)CO)C[C@@H]1C | i
C[C@@H]1CN([C@@H](C)CO)C(=O)c2cc(C#CCN(C)C)cnc2O[C@H]1CN(C)Cc1ccccc1F | i

canonical_smiles | ID4 binder
COc1ccc(Cl)cc1Nc1nc(N)nc(-c2oc3ccccc3c2C)n1 | i
CCOc1ccc(Cl)cc1CNCc1ccccn1 | i
C[C@@H](NC(=O)C[C@H]1C[C@H]2c3cc(NC(=O)c4ccc5c(c4)OCO5)ccc3O[C@H]2[C@@H](CO)O1)c1ccccc1 | i
C[C@@H]1CN([C@H](C)CO)S(=O)(=O)c2ccc(-c3ccccc3)cc2O[C@@H]1CN(C)Cc1ccccc1 | i
O=C(Nc1csc(Cc2c(Cl)cccc2Cl)n1)NN1CCOCC1 | i
CC(C)=CCc1c(O)cc2occ(-c3ccc(O)cc3O)c(=O)c2c1O | i
Cc1ccc(NC(=O)CCn2nc(-c3ccccc3)c3ccccc3c2=O)cc1 | i
CNC[C@@H]1Oc2cc(C#Cc3ccccc3)ccc2S(=O)(=O)N([C@H](C)CO)C[C@H]1C | i
Cc1sc(NC(=O)c2cc(-c3ccccn3)nc3ccc(Cl)cc23)c(C(N)=O)c1C | i
C[C@@H]1CN([C@H](C)CO)C(=O)c2cc(C#CCN(C)C)cnc2O[C@H]1CN(C)Cc1cccc(F)c1 | i
COc1ccccc1-c1cnc2c(c1)C(=O)N([C@@H](C)CO)C[C@H](C)[C@@H](CN(C)CC1CCOCC1)O2 | i
C[C@@H]1CN([C@H](C)CO)C(=O)c2cc(C#Cc3cccc(F)c3)cnc2O[C@H]1CN(C)C(=O)C1CCC1 | i
O=C(Cn1cnc2sc(-c3ccccc3)cc2c1=O)Nc1ccc(F)c(Cl)c1 | i
CCCN(C)C[C@@H]1Oc2cc(C#Cc3cccc(F)c3)ccc2S(=O)(=O)N([C@H](C)CO)C[C@@H]1C | i
COc1cccc(-c2ccc3c(c2)O[C@@H](CN(C)C(=O)C2CCOCC2)[C@H](C)CN([C@@H](C)CO)S3(=O)=O)c1 | i
C[C@@H]1CN([C@@H](C)CO)C(=O)c2cc(C#Cc3cccc(F)c3)cnc2O[C@H]1CN(C)CC1CCCC1 | i
C[C@H]1CN([C@@H](C)CO)C(=O)c2cc(-c3ccccc3F)cnc2O[C@@H]1CN(C)C(=O)C1CC1 | i
CCN1CCCC1CNC(=O)C(NC(=O)c1ccc(C23CC4CC(CC(C4)C2)C3)cc1)C(C)C (configuration not stated) | i
CC(C)C[C@H](NC(=O)[C@@H](O)[C@H](N)Cc1ccccc1)C(=O)O | i
COc1ccccc1S(=O)(=O)N[C@@H]1C=C[C@H](CC(=O)NCc2cccc(F)c2)O[C@H]1CO | i
